# UCH37 inh: inhibitors of human UCH37 deubiquitinase, primary screen, biochemical, Ub-AMC cleavage, fluorescence. Ubiquitin carboxyl-terminal hydrolase isozyme L5 (Homo sapiens), Q9Y5K5. purified proteasome/UCH37. inhibition, % (concentration not given with the values). 0.33% of 330,000 active. AID 588478, 2011;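 active means mean of two replicates above 20%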;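 further: 0% = compound-free wells with enzyme and 100% = wells lacking proteasome; stock transfer was 100 nL into about 20 µL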
#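 Material: Human UCH37 enzyme supplied as purified proteasome complex | Schedule: 30 min preincubation with enzyme, 25 min cleavage at room temperature | Detection: AMC fluorescence 355/460 nm | Measure: % inhibition of Ub-AMC cleavage fluorescence | Controls: Wells without proteasome as full block, compound-free enzyme plus substrate as uninhibited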
# AF4-AF9 inh: inhibitors of AF4 peptide binding to AF9, primary screen, biochemical, AlphaScreen, biotin-AF4 peptide, FLAG-AF9, single point; inhibition, % at 10 µM; 0.47% of 350,000 active;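 active means every replicate reaching a set inhibition limit, whatever the replicate mean, cut at about 25% in these data; inconclusive means mean inhibition reaches that limit but some replicates miss it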;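 further: 0% = plate neutral control median and 100% = total signal loss; the record names both 10 and 1 µM as test concentration; the first replicate is given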
# Target sequence (P42568 whole entry, looked up): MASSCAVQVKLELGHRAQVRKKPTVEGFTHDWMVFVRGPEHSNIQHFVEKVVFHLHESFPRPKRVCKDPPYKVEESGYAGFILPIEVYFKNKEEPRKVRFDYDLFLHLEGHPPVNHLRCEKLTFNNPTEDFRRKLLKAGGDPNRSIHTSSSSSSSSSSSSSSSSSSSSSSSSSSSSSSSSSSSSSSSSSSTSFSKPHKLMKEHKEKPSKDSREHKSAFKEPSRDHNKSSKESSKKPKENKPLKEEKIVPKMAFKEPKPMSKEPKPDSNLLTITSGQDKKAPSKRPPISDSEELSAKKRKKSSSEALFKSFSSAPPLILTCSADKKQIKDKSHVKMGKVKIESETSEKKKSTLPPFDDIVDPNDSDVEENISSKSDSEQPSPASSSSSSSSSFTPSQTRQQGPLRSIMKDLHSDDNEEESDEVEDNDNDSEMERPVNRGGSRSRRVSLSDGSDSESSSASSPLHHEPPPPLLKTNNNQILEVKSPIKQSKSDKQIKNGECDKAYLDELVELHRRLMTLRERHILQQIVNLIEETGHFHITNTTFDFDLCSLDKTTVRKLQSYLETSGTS
# FGF22 binding: binders of human FGF22 protein, primary screen, FGF22 synaptogenesis inhibitor project, biophysical, thermal shift, single point; recombinant FGF22 thermal shift, SYPRO orange fluorescence; percent of sucrose octasulfate shift, DMSO zero; calls only at 9.99 µM; 1.5% of 340,000 active; AID 651658, 2012;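 active means melting point raised past a set limit in the mean and every replicate; inconclusive means no clear call; three in four hits are not shown here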
# RanGTP-Imp inh: inhibitors of RanGTP-importin-beta interaction, primary screen, biochemical, FRET, CFP-Ran, YFP-importin-beta, homogeneous; inhibition, % (no concentration beside the values); AID 2216, 2009; 1.1% of 300,000 active; cell-free CFP-Ran/YFP-importin-beta FRET ratio;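 active means most replicates above 15%; inconclusive means exactly half above 15%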;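 further: 0% = DMSO wells and 100% = Ran loaded with GDP instead of GTP; wells of about 40 µL received 100 nL stock; the first replicate is given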
# HNF4A DNA FP: change in binding of human HNF4A to DNA, primary screen, biochemical, fluorescence polarization, FITC-DNA. activity change, % at 10 µM. AID 1224865, 2016. 0.3% of 360,000 active. Hepatocyte nuclear factor 4-alpha (Homo sapiens), P41235. 1 h; in the data active means activity change above about 30%, passing the limit was not always enough;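 further: controls were the assay level and a saturating level of protein; the project sought stronger binding though the title names inhibitors; some compounds called inactive have numbers as strong as hits; positive values seem to mean higher polarization but the record does not say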
# Target sequence (P41235 whole entry, looked up): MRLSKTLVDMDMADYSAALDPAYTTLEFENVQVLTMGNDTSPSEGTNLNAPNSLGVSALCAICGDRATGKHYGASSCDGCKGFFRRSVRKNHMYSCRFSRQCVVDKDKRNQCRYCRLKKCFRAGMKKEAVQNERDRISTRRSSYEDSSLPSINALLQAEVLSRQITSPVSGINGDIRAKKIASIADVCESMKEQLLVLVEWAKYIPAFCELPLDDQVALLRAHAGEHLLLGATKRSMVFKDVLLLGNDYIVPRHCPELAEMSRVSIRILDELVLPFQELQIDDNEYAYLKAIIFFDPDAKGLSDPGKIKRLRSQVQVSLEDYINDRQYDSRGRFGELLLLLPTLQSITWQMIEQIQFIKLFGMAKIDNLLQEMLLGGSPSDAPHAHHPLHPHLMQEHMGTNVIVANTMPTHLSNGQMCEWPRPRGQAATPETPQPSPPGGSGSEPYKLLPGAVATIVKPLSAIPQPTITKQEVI
# Vif A3G: inhibitors of Vif binding to APOBEC3G peptide, primary screen, biochemical, TR-FRET, GST-Vif 1-94, biotin-A3G peptide, dose response retest (AID 1117319). TR-FRET GST-Vif / biotin-A3G peptide binding; higher % means a stronger effect; test concentration not given here; strong numbers were not always called active. 0.57% of 260,000 active. inhibition, %; hits with a dose series show IC50 in µM;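 active means above the screen mean plus three standard deviations and confirmed in dose response; inconclusive means results disagree or hit not tested in dose response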;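 further: Vif residues 1-94 fused to GST binding biotinylated APOBEC3G peptide 110-148; 0% = full assay without inhibitor and 100% = GST in place of GST-Vif; retest series ran down from 100 µM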
# E coli growth: E. coli growth inhibition, primary screen, OD600. OD600 absorbance (test concentration not listed). AID 1053175, 2014. Escherichia coli growth, 23 h; hits give low values. 0.21% of 330,000 active;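 active means OD600 absorbance below the run mean of sample wells minus 3.6 SD, in any replicate, cut at about 0.56 in these data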;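 further: stock transfer was 300 nL into about 60 µL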
# The depositor's hits bear a star; i = inactive; ? = inconclusive; / = not tested or not shown; + = active, no number; & = joins results of further samples. An excerpt, so the mix of outcomes need not match the whole.
SMILES,UCH37 inh,AF4-AF9 inh,FGF22 binding,RanGTP-Imp inh,HNF4A DNA FP,Vif A3G,E coli growth
Cc1c(CCOC(=O)CC23CC4CC(CC(C4)C2)C3)sc[n+]1CC(=O)c1ccc(Br)cc1,/,/,/,-4.4,1.1,-3.8%,/
O=C(CNC(=O)c1ccc(OC(F)F)cc1)NCC1CCCO1 (stereo not drawn),-2.5,-1.0,i,4.4,4.7,/,0.714
C[C@H](CO)N1C[C@H](C)[C@@H](CN(C)S(=O)(=O)c2cccs2)Oc2ccc(NC(=O)Cn3cnnn3)cc2C1=O,0.0,-2.8&-1.4,i,/,2.0,6.7%,0.723
COc1ccc(CCNC(=S)NC(=O)c2ccc(Br)cc2)cc1OC,3.2,0.0,/,6.1,1.7,-6.3%,0.671
Cc1cc2oc(=O)cc(Cn3ccnc3)c2cc1Cl,-3.6,-1.2,i,-1.2,1.5,/,0.651
CN(CC(=O)Nc1ccc(F)cc1)C(=O)c1ccc(-c2ccc(Cl)cc2)o1,-0.9,0.7,i,-1.2,-1.0,/,0.701
CC(=O)N(C)c1ccc(N2CCOCC2)c2c1C(=O)c1ccccc1C2=O,7.7,3.6,i,-3.5,0.7,/,0.708
CC1CC(C)(C)CC2(C1)NC(=O)N(CC(=O)NCc1ccccc1F)C2=O (stereo not drawn),-3.0,-3.0,i,-0.4,-0.6,6.0%,0.708
N#CC(=Nc1ccccc1)c1ccccc1,0.8,-4.0,i,/,-0.7,-2.8%,0.672
COc1ccc(CN2C(=O)C(CC(=O)NC3CCCCC3)CC(C(=O)N3CCOCC3)=C2C)cc1 (stereo not drawn),/,-2.1,i,/,1.3,3.1%,/
Cc1ccc2c(c1)N(S(=O)(=O)c1ccc(CN3C(=O)c4cccnc4C3=O)s1)CCO2,3.5,-2.9,i,-1.0,2.8,/,0.716
Cc1oc(-c2ccc(Cl)cc2)nc1CN1CCCC(C(=O)NCc2ccccn2)C1 (stereo not drawn),-1.3,/,/,1.5,0.6,-1.8%,0.667
CC(C)c1ccc2[nH]c(O)c(N=NC(=O)c3cccc(S(=O)(=O)Nc4cccc(Cl)c4)c3)c2c1,10.3,1.4,i,-1.9,2.6,/,0.731
Cn1c(Sc2ccc(Br)cc2)c(C=O)c2ccccc21,0.0,/,/,5.6,-1.5,-14.6%,0.655
S=C(NC1CCCC1)N1CCN(c2cccc(Cl)c2)CC1,-0.9,-5.9,i,4.5,-3.4,-0.2%,0.712
Cc1ccccc1NN=Nc1nc2c([nH]1)c(=O)n(C)c(=O)n2C,1.4,5.6,i,/,-1.1,/,0.652
CC(NCCCSc1ccccc1)C(O)c1ccc(O)cc1 (stereo not drawn),/,2.1,i,/,3.2,-5.5%,/
Cc1cc(C)n2nc(CNS(=O)(=O)c3ccc(F)c(C)c3)nc2n1,-2.2,2.1,i,0.1,-2.1,/,0.648
COC(=O)c1ccc(NC2=CC(=O)CC(C)(C)C2)cc1,9.8,/,/,5.6,1.4,-0.2%,0.725
CSc1ccc(C#N)cc1NC(=O)c1ccccc1C,1.6,0.2,i,3.6,-0.8,2.4%,0.724
CC1CCc2c(sc(NC(=O)c3cccs3)c2C(=O)O)C1 (stereo not drawn),6.3,0.3,i,6.3,-4.1,-1.8%,0.673
CC1(C)CC(=O)C2=C(C1)OC(=O)CC2c1cccs1 (stereo not drawn),2.8,-8.6,i,3.6,-3.0,12.8%,0.714
CC(=O)c1cc(C#N)c(SCc2ccncc2)nc1C,1.6,/,/,?,2.0,22.5%,0.698
OCC[C@@H]1C[C@H](O)[C@@H](O)[C@@]2(OCCc3ccccc32)O1,-0.4,/,/,?,-1.8,/,/
CN1CCN(C(=O)/C(=C\c2cccnc2)NC(=O)c2cccc(Br)c2)CC1,-0.2,-9.4,+,4.4,1.4,2.4%,0.676

# The list goes on; it opens with the 4 that closed the last part.
SMILES,UCH37 inh,AF4-AF9 inh,FGF22 binding,RanGTP-Imp inh,HNF4A DNA FP,Vif A3G,E coli growth
CC1(C)CC(=O)C2=C(C1)OC(=O)CC2c1cccs1 (stereo not drawn),2.8,-8.6,i,3.6,-3.0,12.8%,0.714
CC(=O)c1cc(C#N)c(SCc2ccncc2)nc1C,1.6,/,/,?,2.0,22.5%,0.698
OCC[C@@H]1C[C@H](O)[C@@H](O)[C@@]2(OCCc3ccccc32)O1,-0.4,/,/,?,-1.8,/,/
CN1CCN(C(=O)/C(=C\c2cccnc2)NC(=O)c2cccc(Br)c2)CC1,-0.2,-9.4,+,4.4,1.4,2.4%,0.676
CCOC(=O)c1nc2sc3c(c2c(=O)n1C(C)C(=O)OCC)CCCC3 (stereo not drawn),i,-9.1,i,-0.1,0.1,2.4%,0.655
O=C(C1CCN(S(=O)(=O)N2CCOCC2)CC1)N1CCN(c2ccccc2F)CC1,2.9,-4.9,i,-1.2,0.9,-9.4%,0.693
COc1ccc(C2C(C(=O)N3CCCC3)c3cc(OC)c(OC)cc3C(=O)N2C)cc1 (stereo not drawn),1.1,/,/,-13.4,-0.4,?,0.678
COc1ccc(Cl)cc1NC(=O)C1CCCN(S(C)(=O)=O)C1 (stereo not drawn),5.6,1.8,i,?,-3.3,-2.6%,0.647
Cc1nc(SCc2cccc(F)c2)[nH]c(=O)c1C#N,0.7,/,/,1.0,1.8,3.4%,0.661
C=CCN1C(=O)N/C(=C/c2ccc(C)o2)C1=O,3.9,-7.0,i,?,0.5,?,/
Nc1ccc(S(=O)(=O)c2ccc(N)c(N)c2)cc1,4.4,-11.5,i,-1.7,1.7,1.7%,0.671
CC(C)CN1C(=O)C(=O)N(CC(=O)N(C)CC(=O)Nc2ccc(Cl)c(C(F)(F)F)c2)C1=O,2.7,-0.6,i,/,1.3,/,0.67
C/C(=N\NC(=O)c1ccc(Cl)c(Cl)c1)c1ccccn1,/,3.7,i,0.5,-0.1,/,/
COc1ccc(NC2C=CS(=O)(=O)C2)c(OC)c1 (stereo not drawn),3.1,-7.8,i,1.6,1.6,23.6%,0.645
COc1cccc(/C=N/Nc2cc(Cl)nc(C)n2)c1O,/,-2.1,i,1.6,-5.8,/,/
O=C(CN1CCN(S(=O)(=O)c2ccc3ccccc3c2)CC1)NC(=O)NC1CCCCC1,6.7,/,/,?,0.9,-2.6%,0.709
Cc1ccc(-c2cc(NC(=O)c3ccccc3[N+](=O)[O-])n[nH]2)cc1,4.7,2.8,i,-2.2,-2.6,-0.9%,0.67
CCCc1cc(=O)[nH]c(SCC(=O)CSc2nc(CCC)cc(=O)[nH]2)n1,0.5,/,/,-0.3,-0.6,?,0.685
C=CCOc1ccc(C(=O)Nc2ncn[nH]2)cc1,0.9,-1.9,i,-2.3,2.9,3.8%,0.661
Nc1c(N(Cc2ccco2)C(=O)c2cccc(Cl)c2)c(=O)[nH]c(=O)n1Cc1ccccc1,0.9,3.0,i,/,5.0,-1.0%,0.693
Cc1ccc(NC(=O)COC(=O)CN2C(=O)NC3(CCCC3)C2=O)cc1S(=O)(=O)N(C)C,3.4,-1.4,i,0.9,-2.5,18.3%,0.673
COc1ccc(S(=O)(=O)N2CCCCCC2)cc1C(=O)N(C)Cc1ccc(F)cc1,1.2,-0.5,i,/,0.6,4.3%,0.646
Cc1cccc(CS(=O)(=O)c2nnc([C@H](Cc3ccccc3)NC(=O)OC(C)(C)C)o2)c1,3.2,/,/,?,5.0,-3.5%,0.706
COCCNC(=O)CN(C(=O)Cn1nnc2ccccc21)c1ccc(C)c(F)c1,3.5,/,/,-2.0,2.4,-2.2%,0.699
COc1ccc(Cl)cc1C(=O)CSc1nc(N)cc(N)n1,4.2,/,/,/,1.9,5.2%,0.667
CC(C)C(OC(=O)CN1C(=O)c2ccccc2C1=O)C(=O)NC1CCCC1 (stereo not drawn),3.8,-0.7,i,3.5,-0.7,/,0.696
CC(C)CNC(=O)C1(C)CCCN1C(=O)c1c(Cl)cccc1Cl (stereo not drawn),/,0.3,i,/,2.2,/,/
CSC(=NC#N)N1CCN(c2ccc([N+](=O)[O-])cc2)CC1,10.4,-1.1,i,-2.5,-2.1,/,0.67
COC(=O)c1scc(C)c1NC(=O)c1ccc(Cl)cc1,1.6,/,/,8.0,-3.5,-1.3%,0.709

# (continued)
SMILES,UCH37 inh,AF4-AF9 inh,FGF22 binding,RanGTP-Imp inh,HNF4A DNA FP,Vif A3G,E coli growth
O=C(O)CSc1c(Cl)c(=O)oc2ccc(Cl)cc12,/,4.9,i,/,-1.9,10.8%,/
O=C(CCC(=O)c1ccc(F)cc1)OCc1nnc(-c2ccc([N+](=O)[O-])cc2)o1,1.4,1.1,i,/,-1.3,-3.8%,0.621
CSCC(C)N1CCC(n2nccc2NC(=O)c2ccccc2C)CC1 (stereo not drawn),1.0,0.3,i,20.9*,-2.4,-6.0%,0.71
CN(C)S(=O)(=O)c1cccc(NC(=O)COC(=O)c2ccc(Br)o2)c1,0.8,/,/,4.0,-2.1,5.1%,0.755
CC(C)CNC(=O)c1ccc(-c2ccc(F)c(F)c2)c2ccoc12,/,-0.3,i,/,-1.1,/,/
CCC1(C)CC(CCN(Cc2ccco2)C(C)=O)(c2ccccc2)CCO1 (stereo not drawn),4.3,3.9,i,-0.1,-1.3,28.9%,0.714
CCC[n+]1cn(/C(C(=S)Nc2cccc(Cl)c2C)=C(/[O-])c2ccc(OC)c(OC)c2)c2ccccc21,9.9,4.3,i,-2.0,-7.2,-6.1%,0.669
COC(=O)C(=CC(=CN(C)C)C=C(C(=O)OC)C(=O)OC)C(=O)OC,12.8,-0.4,i,-0.8,1.9,-0.8%,0.691
O=C(NC1CCCCC1)C(c1ccncc1)N(Cc1ccc2c(c1)OCO2)C(=O)c1cnsn1 (stereo not drawn),2.2,/,/,22.1,-3.0,14.9%,0.724
CSC1(SC2=NCCN2)SC2(NCCN2)S1,/,1.1,i,/,-1.2,-2.9%,/
OC(COc1ccc(Br)cc1)CN1CCCC1 (stereo not drawn),2.6,0.7,i,9.2,3.4,/,0.687
COc1ccc(NC(=O)CCCn2c(=O)c3sccc3n(Cc3ccccc3C)c2=O)cc1,2.0,/,/,-3.1,-2.3,1.2%,0.634
COC(=O)c1ccc(CNC(=O)/C=C/[C@H]2O[C@@H](n3cc(C)c(=O)[nH]c3=O)C[C@@H]2O)cc1,/,-3.6,i,/,-5.8,/,/
CCOc1ccc2[nH]cc(C(=O)O)c(=O)c2c1,-2.5,-44.9,i,1.8,-3.1,-0.7%,0.707
N#CC/C(N)=N/Nc1nc2ccccc2nc1Cc1ccccc1,-16.3,5.7,i,-2.9,8.6,6.8%,0.663
COc1ccc(CC(=O)Nc2ccc(F)c(Cl)c2)cc1S(=O)(=O)N1CCOCC1,1.0,-8.1,i,/,1.4,5.0%,0.628
N#CC1=C(N)N2C(=C(C#N)C1c1ccc(Br)cc1)Nc1ccccc12 (stereo not drawn),-10.2,-1.6,i,23.4*,/,28.6%,0.708
Cn1ncc(N)c1C(=O)Nc1cccc(C(F)(F)F)c1,5.1,/,/,2.0,1.8,11.8%,0.784
COc1ccc(NC(=O)C2CCCN(S(=O)(=O)c3cccc4nonc34)C2)c(OC)c1 (stereo not drawn),1.4,-4.8,i,2.4,-2.7,/,0.685
Cc1cccc(NC(=O)C2CCN(S(=O)(=O)c3ccc4c(c3)OCCCO4)CC2)n1,2.2,-24.4,i,5.8,0.9,-3.2%,0.671
